Source: PubChem BioAssay
Bead autofluor = flagged as autofluorescent in microsphere protease counterscreen | 360,000 compounds, 3.1% hits | compound autofluorescence counterscreen, microsphere flow cytometry; hits give high values | fluorescence intensity (concentration not given with the values) | AID 624483;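 active = at least 3 SD above the mean of all compounds, about 16000 in these data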;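 also: 100 nL of 1 mM stock went into each well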
* = called active by the depositor. These rows are one share of the data; the hit share may differ from the screen's.

mol,Bead autofluor
CC1(C(=O)NCc2ccc3c(c2)OCO3)CCN1C(=O)CC1CCCC1 (centres undefined),5031
Cc1ccc(S(=O)(=O)NC(=O)C2(C)CCN2C(=O)Cc2ccc(C(C)(C)C)cc2)cc1 (centres undefined),3986
CC1(C)CC(=O)C=C(c2ccc(COC(=O)c3cccc(C(F)(F)F)c3)cc2)C1=O,3009
CC1C(=O)N(Cc2cn(CCC3OCCO3)nn2)CCS(=O)(=O)N1Cc1ccc(-c2ccc(Cl)cc2)cc1 (centres undefined),3503
Cc1ccc2nc(-c3ccco3)c(Cc3cccc(Cl)c3)n2c1,4966
CN(C)CCNc1nc(Oc2ccccc2)c2sccc2n1,3608
COc1ccc(-c2coc3c(C(=O)Nc4ccc(OC)nc4)cccc23)c(C)c1,3853
COc1ccc(C(=O)C(C)OC(=O)C2CC3CCCC(C2)C3=O)cc1 (centres undefined),2783
CC(C)C(=O)N1CCC1(C)C(=O)Nc1ccc2cn[nH]c2c1 (centres undefined),3507
COc1ccc(NC(C)=O)cc1S(=O)(=O)NCc1ccc2c(c1)OCO2,2867
CCOC(=O)c1nc2ccc(C)cc2c2c1C1CC(c3c(Cl)cccc31)N2C(=O)OCc1ccccc1 (centres undefined),3415
CCN1C(=O)[C@H]2[C@@H](c3ccc(OC)cc3)N[C@]3(CCCN(Cc4ccc(F)cc4)C3=O)[C@H]2C1=O,3107
COCCCNC(=O)CC[C@H]1O[C@@H](n2cnc3c(NC(=O)c4ccccc4)ncnc32)[C@H](O)[C@@H]1O,5981
Cc1c(NC(=O)CSc2nnc(-c3ccccc3F)o2)c(=O)n(-c2ccccc2)n1C,4065
CCN(CC)C(=O)C1=C(C)N(CCCOC)C(=O)C(CC(=O)NC2CCCC2)C1 (centres undefined),3652
CC(C)c1cccc(-c2csc(C(O)c3cccc(Cl)c3)n2)c1 (centres undefined),3561
COC(=O)C1(C(=O)OC)C/C=C\CCN(S(=O)(=O)c2ccccc2[N+](=O)[O-])CC1,5648
COc1cccc(C(O)c2nc(-c3ccncc3)cs2)c1 (centres undefined),3471
CC(C)CC1C(=O)N(Cc2cn(CCC3OCCO3)nn2)CCS(=O)(=O)N1Cc1ccc(-c2ccncc2)cc1 (centres undefined),3379
COc1ccc(/C=C/C(=O)OCC(=O)N2c3ccccc3CC2C)c(OC)c1 (centres undefined),4386
C[C@H](CO)N1C[C@H](C)[C@@H](CN(C)Cc2cncnc2)Oc2cc(Br)ccc2S1(=O)=O,3576
C[C@H]1CN([C@@H](C)CO)C(=O)CCCn2cc(nn2)CO[C@@H]1CN(C)C(=O)Nc1ccc(N2CCN(C)CC2)cc1,3753
CN1CCN(C2CN(Cc3cn(Cc4ccccc4F)nn3)S(=O)(=O)C2)CC1 (centres undefined),4129
C[C@H]1CN([C@@H](C)CO)C(=O)CCCn2nncc2CO[C@@H]1CN(C)C(=O)c1ccccc1,2907
COC(=O)[C@]12CCCCC=C1N(Cc1ccco1)C(=O)[C@H](CC(=O)N1CCN(C(=O)C3CC3)CC1)C2,6089
CC(C)NC(=O)c1ccc2sc([C@@H]3O[C@H](CO)[C@H](O)[C@H](O)[C@H]3O)nc2c1,3716
CCc1nc(NCc2cccs2)c2nnn(Cc3ccccc3)c2n1,3828
Cc1ccc2nc(-c3cccc(Cl)c3)c(Cc3cccc(F)c3)n2c1,4577
CN1CCN(c2ccc(CNC(=O)C3(C)Cc4c(-c5ccc(C(N)=O)cc5)ccnc4O3)cc2)CC1 (centres undefined),3534
CC(C)(C(=O)N1CCC1(C)C(=O)NS(=O)(=O)c1ccc(Cl)s1)c1ccccc1 (centres undefined),3403
Cn1c(=NN=Cc2ccccc2OCCO)sc2ccccc21,2913
CCC(=O)N(Cc1cc2cc(OC)ccc2[nH]c1=O)c1ccccc1OC,3015
COc1cc2ccc(CC(N)=O)cc2cc1OC,3570
C[C@@H]1CN([C@H](C)CO)C(=O)CCCn2nncc2CO[C@H]1CN(C)S(=O)(=O)c1ccccc1,3813
Cc1noc(C)c1NC(=O)N(C)C[C@@H]1OCc2cnnn2CCCC(=O)N([C@H](C)CO)C[C@@H]1C,2886
CC1=C(C(=O)N(C)C)CC(CC(=O)NC2CCCCC2)C(=O)N1Cc1ccc(F)cc1 (centres undefined),6271
Cc1ccsc1C(=O)N1CCC1(C)C(=O)Nc1ccc2c(c1)OCCO2 (centres undefined),3559
O=C(Nc1ccccc1)c1cc(C2CCCN(C(=O)c3cccs3)C2)on1 (centres undefined),3620
O=C(Nc1nnc([C@H]2C[C@H](O)[C@@H](CO)O2)s1)c1ccccc1F,3677
O=C1c2ccccc2C(c2nnnn2-c2ccc3ccccc3c2)N1C1CC1 (centres undefined),5533
COc1ccc(CNC(=O)c2ccc(-c3cnn(C)c3)c3ccoc23)cc1OC,4096
Cc1cnc2ccc(F)cc2c1,5584
O=C(CC[C@H]1O[C@@H](n2cnc3c(NC(=O)c4ccccc4)ncnc32)[C@H](O)[C@@H]1O)NCC(c1ccccc1)c1ccccc1,6114
Cc1ccc(-c2nc3ccc(Br)cn3c2Cc2ccccc2C(F)(F)F)cc1,5854
O=C(Nc1cccc(Cc2ccccc2)c1)Nc1cccc2[nH]c([C@@H]3O[C@H](CO)[C@@H](O)[C@H](O)[C@H]3O)nc12,6039
CCc1nc2c(OCc3ccc(F)c(F)c3)cccn2c1N(C)C(=O)c1ccco1,3899
OC[C@@H]1CN(Cc2ccc(Cl)cc2)C[C@H](n2cnc3c(NC4CCCC4)ncnc32)O1,3661
CC(=O)CC1c2cc(F)ccc2C=C(c2ccsc2)N1c1ccc(C#CC2(O)CCCCC2)cc1 (centres undefined),5448
C[C@@H]1CN([C@@H](C)CO)C(=O)CCCn2cc(nn2)CO[C@H]1CN(C)S(=O)(=O)c1ccc(Cl)cc1,2924
COCCNc1nnc(SCC(=O)c2cc(C)n(C3CC3)c2C)s1,3794
OC[C@@H]1CN(Cc2ccc(-c3ccccc3)cc2)C[C@H](n2cnc3c(Nc4ccccc4)ncnc32)O1,3714
CN(CCc1ccccc1)c1cc2c(c3c1ccn3C)C1CCC2O1 (centres undefined),4289
Cc1nc(C(F)(F)F)ccc1C(=O)N1CCC1(C)C(=O)NS(=O)(=O)c1cccc(Cl)c1 (centres undefined),3888
CC(=O)Nc1ccc(NC(=O)c2csc([C@@H]3O[C@H](CO)[C@H](O)[C@H](O)[C@H]3O)n2)cc1,3560
CC(C)C(N)c1csc(NC(=O)Nc2cccc(C(F)(F)F)c2)n1 (centres undefined),4173
CSc1ncnc2c1ncn2CCCN1CCN(Cc2cccc3ccccc23)CC1,2906
CCc1ccc(-c2n[nH]nc2C2=CC(=O)C[C@H](c3ccc(F)cc3)C2)cc1,3484
FC(F)(F)c1nc2nc(Cl)c(Cl)nc2n1CCCN1CCOCC1,4262
CN1OC[C@@H]2CN(C(=S)NCCc3ccccc3)[C@H](c3ccccc3Br)C[C@@H]21,5888
CC(C)NC(=O)Nc1nnc([C@@H]2C[C@H](O)[C@@H](CO)O2)s1,3660

An excerpt of these results, as labelled records.
SMILES: CC(=O)Nc1ccc(NC(=O)c2csc([C@@H]3O[C@H](CO)[C@H](O)[C@H](O)[C@H]3O)n2)cc1
  Bead autofluor: 3560
SMILES: COc1ccc(CNC(=O)c2ccc(-c3cnn(C)c3)c3ccoc23)cc1OC
  Bead autofluor: 4096

(cont.)
mol,Bead autofluor
COc1ccc(CN(C)[C@H]2C[C@H]3c4[nH]c5ccccc5c4CCN3C[C@H]2[C@H](C)O)cc1,3195
COc1ccc(C(=O)OCC(=O)N(Cc2ccccc2)Cc2ccccc2)c(O)c1,3831
c1ccc(CN2CCC3CC2c2cc(N4CCCCC4)ccc23)cc1 (centres undefined),3021
CCCC#Cc1cnc2c(c1)C(=O)N([C@H](C)CO)C[C@H](C)[C@@H](CN(C)C(=O)CCN1CCCCC1)O2,3873
COc1ccc(S(=O)(=O)N2CCCCCC2)cc1C(=O)N1CCN(C(C)=O)CC1,3504
C[C@@H]1CN([C@H](C)CO)C(=O)CCCn2nncc2CO[C@H]1CN(C)Cc1ccc(Oc2ccccc2)cc1,3445
C[C@H](CO)N1C[C@H](C)[C@@H](CN(C)C(=O)Nc2ccc(N3CCN(C)CC3)cc2)OCc2cnnn2CCCC1=O,3786
O=C(CC[C@H]1O[C@@H](n2ccc(=O)[nH]c2=O)[C@H](O)[C@@H]1O)NCC1CCCO1 (some centres undefined),5249
N#Cc1ccc(OCc2c(-c3ccccc3)nnn2CC(=O)O)cc1,3991
COc1cc(Nc2cccc(-c3ccccc3)n2)cc(OC)c1OC,3765
O=C(COC(=O)c1ccc(Cl)c(S(=O)(=O)N2CCCCCC2)c1)NCc1ccccc1,4191
CC(=O)Nc1cccc(-c2ccnc3c2CC(C)(C(=O)NCc2cccs2)O3)c1 (centres undefined),4086
CC(C)N1CCC1(C)C(=O)Nc1ccc2cn[nH]c2c1 (centres undefined),2926
O=C1NCN(c2ccccc2)C12CCN(C(c1ccccc1OC(F)(F)F)c1nnnn1C1CCCCC1)CC2 (centres undefined),6383
COc1cc(OC)nc(Nc2nc(C(N)Cc3ccc(Cl)cc3)cs2)n1 (centres undefined),3515
CSc1ncnc2c1ncn2CCCN1CCN(c2ncccn2)CC1,3832
O=C(Cc1c(Cl)cccc1Cl)OCC(=O)c1ccc[nH]1,4110
O=C(Nc1ccccc1Cl)c1cc(C2CCCN(S(=O)(=O)c3cccs3)C2)on1 (centres undefined),3427
COc1ccc(NC(=O)c2cc(-c3cc(F)ccc3OC(C)C)n[nH]2)c(C)c1,3298
CCCCC1CCC(C(=O)N(CCC(C)C)c2c(N)n(CCCC)c(=O)[nH]c2=O)CC1 (centres undefined),2886

6 entries drawn at random from those above, as already listed:
mol,Bead autofluor
O=C(Cc1c(Cl)cccc1Cl)OCC(=O)c1ccc[nH]1,4110
CCCCC1CCC(C(=O)N(CCC(C)C)c2c(N)n(CCCC)c(=O)[nH]c2=O)CC1 (centres undefined),2886
CCCC#Cc1cnc2c(c1)C(=O)N([C@H](C)CO)C[C@H](C)[C@@H](CN(C)C(=O)CCN1CCCCC1)O2,3873
O=C1NCN(c2ccccc2)C12CCN(C(c1ccccc1OC(F)(F)F)c1nnnn1C1CCCCC1)CC2 (centres undefined),6383
O=C(Nc1ccccc1Cl)c1cc(C2CCCN(S(=O)(=O)c3cccs3)C2)on1 (centres undefined),3427
CSc1ncnc2c1ncn2CCCN1CCN(c2ncccn2)CC1,3832

Carrying on.
mol,Bead autofluor
CCOc1ccc(OCC(=O)NCCS(=O)(=O)N2CCN(c3ccccc3)CC2)cc1,3779
O=S1(=O)CC(N2CCN(CCO)CC2)CN1Cc1ccc(F)cc1 (centres undefined),4201
COc1cc(Cl)c(CNC[C@H]2O[C@@H](n3cnc4c(=O)[nH]c(N)nc43)[C@H](O)[C@@H]2O)c(Cl)c1O,5492
Cc1ccccc1-c1nc2ccccc2c(=O)o1,2928
Cc1cc2nc(C(C)(C)C)c(Cc3ccccc3C(F)(F)F)n2c(C)c1Br,5905
CN(Cc1ccccc1)C(=O)[C@@H]1CCCN1C(=O)[C@@H]1CCCN1C(=O)c1ccccc1,4254
Cc1ccccc1NC(=O)Cc1nc(COC(=O)CSc2ccc(F)cc2)cs1,3954
O=C(Nc1ccccc1Cl)c1cc(C2CCCCN2S(=O)(=O)c2ccc(F)cc2F)on1 (centres undefined),3954
CC(C)c1csc(CN2CCC(C(=O)Nc3cccc(-c4ccco4)c3)CC2)n1,4705
COc1c(F)cccc1C1=CC(=O)C[C@H](c2ccc(F)cc2)C1,2999
Cc1ccc(S(=O)(=O)N2CCC(=O)N([C@H](COCc3ccc(Cl)cc3)Cc3ccccc3)CC2)cc1,5953
Cc1ccc(-c2nc3c(c(SCC(=O)N4CCCC4)n2)COC(C)(C)C3)cc1,3621
COCCCN1C(=O)C(CC(=O)NC2CCCCC2)CC(C(=O)N(C)C)=C1C (centres undefined),3020
Cc1cc(-c2ccc(F)cc2)n2ncc(-c3ccccc3)c2n1,3396
CCc1nc2c(OCC(N)=O)cccn2c1N(C)C(=O)c1ccc(OC)cc1,3442
CC(=O)c1sc(Nc2ccc3c(c2)OCO3)nc1C,4213
Nc1ccc(C=Cc2ccc(N)cc2)cc1,4412
CCc1nc2ccc(C(=O)Nc3cc(-c4ccccc4)ccc3OC)cn2c1N(C)Cc1ccc(OC)cc1,3690
CCc1nc2ccc(C(=O)Nc3cccc(OCC(=O)N(C)C)c3)cn2c1N(C)Cc1cc2ccccc2s1,3742
CC(C)CCC[C@](C)(O)c1ccc(C(=O)O)cc1O,5042
CCNC(=O)C1(C)CCCN(C(=O)c2ccc(F)c(C)c2)C1 (centres undefined),3668
COCCn1c(SCC(=O)Nc2ccc3c(c2)OCCO3)nc2ccccc2c1=O,3026
COc1ccc(Cc2c(-c3ccccc3)nc3ccc(Cl)cn23)c(C)c1,7200
COc1ccc([C@H]2C[C@H](O)[C@@H](n3cc(COC(=O)c4ccccc4)nn3)CN2C(=O)C2CCCCC2)cc1,3671
O=C1OC(C(Cl)(Cl)Cl)Nc2ccccc21 (centres undefined),5965
COc1cc(CN2C[C@@H](CO)O[C@@H](n3cnc4c(N5CCOCC5)ncnc43)C2)cc(OC)c1OC,4008
CCCC/C=C/c1cccc2nncn12,3134
O=C(c1[nH]c(C(F)(F)F)nc1-c1ccccc1)N1CCN(c2ncccc2C(F)(F)F)CC1,4149
COCCCN1C(=O)C(CC(=O)NC2CCCC2)CC(C(=O)N(C(C)C)C(C)C)=C1C (centres undefined),4194
COc1ccc(NC(=O)c2sc(=O)n(Cc3cccc(C(F)(F)F)c3)c2C)cc1OC,4955
CCNC(=O)C1(C)CCCN1C(=O)c1ccc(N(C)C)cc1 (centres undefined),4044
COc1ccccc1OCc1cc(C(=O)N(C)CCC2CCOCC2)no1,3562
COCCNC(=O)C1CCCN(C(=O)c2oc3ccccc3c2C)CC1 (centres undefined),3511
Cc1ccccc1-c1csc(C(O)c2ccccc2)n1 (centres undefined),4028
